High-throughput results (PubChem)
PrP 5UTR inh – suppresses PrP 5' UTR mRNA reporter expression; cell-based PrP 5' UTR mRNA reporter, plate reader; inhibition, % (concentration not given with the values); 340,000 tested, 0.35% active; AID 488862;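 active = every replicate at 50% or more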;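 note: 0 = median of the neutral control wells; tested in H4 reporter cells; numbers are from one replicate; inactives centre near -14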
Sa ugtP lethal – kills S. aureus RN4220 lacking UgtP; AID 1259309; S. aureus RN4220 ugtP deletion, OD600 growth, 16 h; some inactives read as strong as hits; 330,000 tested, 0.54% active; growth inhibition, % (no concentration beside the values);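 active = z-score under -3 and OD600 up to 0.15 on both plates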;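 note: plate controls were untreated wells for no effect and antibiotic for full effect; wells of about 80 µL received 100 nL stock; the first replicate is given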
BJeLR viability – kills HRASV12-expressing BJeLR cells; BJeLR (HRASV12) viability, CellTiter-Glo ATP luminescence, 48 h; reference of the scale not given here; inhibition, % (concentration not given with the values); 300,000 tested, 0.17% active;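 active = replicate mean above 50%; inconclusive = above 50% but judged a plate artefact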;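 note: 50 nL library stock added to about 25 µL; numbers are from one replicate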
Sa RN4220 lethal – S. aureus RN4220 growth inhibition; 330,000 tested, 0.33% active; inhibition, % (no concentration beside the values); OD600, 16 h;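 active = z-score of -3 or lower and OD600 up to 0.18 on both plates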;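 note: plate controls were untreated cells for no effect and reference antibiotic for full effect; stock transfer was 100 nL into about 80 µL; one replicate is shown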
Mtb hypoxia inh – inhibitors of hypoxia-regulated fluorescent reporter in Mycobacterium tuberculosis. fluorescence inhibition, % (concentration not given with the values). 300,000 tested, 0.1% active. M. tuberculosis hypoxia-regulated fluorescent reporter, fluorescence;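 active = 35 to 45% if threefold the growth effect, above 45% if 1.5-fold the growth effect; inactive = the rest, general growth blockers included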;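 note: wells of about 50 µL received 100 nL stock; 0% = vehicle wells and 100% = reference inhibitor wells; whole bacteria with a GFP reporter of the hypoxia response; strong numbers were not always called active; many hits fall short of the cut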
Autofluor counter – compound fluorescence in toxin protease inhibitor counterscreen; compound autofluorescence counterscreen, microsphere flow cytometry; stronger effect = higher value; fluorescence intensity (test concentration not listed); 360,000 tested, 3.1% active;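 active = at least 3 SD above the mean of all compounds, about 16000 in these data; inconclusive = too few beads counted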;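 note: 100 nL of 1 mM stock went into each well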
Mtb hypoxia inh growth – second read-out of Mtb hypoxia inh, no call of its own (marks repeat the call); growth inhibition, %; measured here: M. tuberculosis growth (absorbance);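 0% = vehicle and 100% = reference antibiotic; read after six days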
Numbers without * were called inactive; ? = inconclusive; / = no result given.

mol,PrP 5UTR inh,Sa ugtP lethal,BJeLR viability,Sa RN4220 lethal,Mtb hypoxia inh,Mtb hypoxia inh growth,Autofluor counter
N#Cc1nc(Nc2cccc(Cl)c2)c2ncn(C3CCCC3)c2n1,0,-13,/,-1.0,-2,2,3679
Cc1ccc(S(=O)(=O)NCC(=O)Nc2ccc(C(F)(F)F)cc2)cc1,-11,-7,-1,3.4,-2,5,23413*
CC(C)(C)OC(=O)N1CCC(C(N)=O)CC1,3,-3,8,-9.1,0,1,5342
O=C(O)c1ccc(NN=Cc2ccc(C(F)(F)F)cc2)cc1,/,4,/,-6.7,9,-1,/
CSC(=N/N=C(\N)c1cnccn1)SC,-3,/,1,/,/,/,2601
COC(=O)C(C#N)c1nc2ccccc2nc1N1CCN(Cc2ccc3c(c2)OCO3)CC1 (configuration not stated),/,4,9,3.0,/,/,/
COc1ccc(NS(=O)(=O)c2cc(C(=O)N(C)CCc3ccccn3)ccc2Cl)cc1,-11,-1,/,-1.3,-7,10,3632
CCCc1c(C(=O)NNc2ccccc2OC)cnn1-c1ccccc1,-18,-8,1,1.6,1,-4,5602
O=C(NN1CCOCC1)c1cccc2ccccc12,-5,0,-14,5.8,4,-1,7703
Cc1cc(SCCC(=O)O)nc2c(C)cccc12,-6,-21,-9,3.3,-4,5,3743
c1ccc(-c2nccc(-c3ccco3)n2)nc1,-38,4,-4,10,4,12,3132
COc1cc(NC(=O)c2ccco2)ccc1NC(=O)c1ccccc1Cl,-14,2,1,13,7,1,2493
CCN(CCNC(=O)C1CCN(S(=O)(=O)c2c(C)noc2C)CC1)c1ccccc1,-3,-2,4,2.9,-4,5,2065
Cc1csc(NC(=O)CSc2nnc(Cc3cccn3C)n2-c2ccc(F)cc2)n1,-22,4,10,4.5,9,4,5888
CCOC(=O)N1CCC(NC(=O)c2cc3sccc3n2CC)CC1,-2,6,2,2.9,-2,1,8266
O=C(Nc1cccc(NC(=O)c2ccco2)c1)c1ccc2c(c1)OCCO2,-13,-1,-6,6.9,-8,-3,2001
CCCOc1ccccc1N1C(=O)CC(N(O)c2ccccc2)C1=O (configuration not stated),-17,-11,-9,-4.0,7,13,2073
COc1ccc(CN2C(=O)c3cccnc3C2=O)cc1S(=O)(=O)N(C)c1cccc(C)c1,0,9,6,3.4,13,1,6116
COc1cc(/C=C2/C(=N)N3N=C(CC(=O)N4CCOCC4)SC3=NC2=O)ccc1OCc1ccccc1F,-8,1,-2,2.0,4,6,5688
CCCCC1S/C(=N/N=C/c2ccco2)NC1=O (configuration not stated),3,/,-16,/,/,/,2352
CC1CCc2nc(NC(=O)c3ccc(N4C(=O)CCC4=O)cc3)sc2C1 (configuration not stated),-21,-1,5,3.7,5,-1,6565
COCCNC(=O)C1CC(c2ccc([N+](=O)[O-])cc2)=NO1 (configuration not stated),-16,/,13,/,/,/,4068
CN(CCc1ccccc1)C(=O)c1cccc(NC(=O)Cc2cccc(NC(=O)C3CCCN(C(=O)C4CCC4)C3)c2)c1 (configuration not stated),-17,1,/,-0.3,-11,-4,3000
O=C(Nc1ccccc1)Nc1ccc(C(=O)N2CCOCC2)cc1,-30,3,3,1.2,10,10,3783
COc1cccc(C=NNC(=O)C(=O)N2CCCC2)c1,/,2,/,-1.7,16,6,/
Cc1ccc(-c2nn(CC(=O)NC(C)c3ccccc3)c(=O)c3ccccc23)cc1 (configuration not stated),0,-4,-2,-1.5,12,-1,3865
CC(=O)c1ccc(N2CCN(C(=O)Nc3ccc(Cl)cc3)CC2)cc1,-31,6,-6,3.7,9,6,4335
CC(=O)c1c(C)n(-c2ccc(C)cc2)c2ccc(O)cc12,-11,-1,-3,-3.7,-2,3,3659
CCN(CC)C(=O)C1CCCN(Cc2ccc(N(C)C)cc2)C1 (configuration not stated),-23,-2,0,-1.6,-3,4,?
CCOc1ccc(NC(=S)N2CCN(c3ccc(N4CCOCC4)nn3)CC2)cc1,-11,14,-2,5.3,0,0,2669
CC(O)CNCCCOc1ccc(Cl)cc1C(C)(C)C (configuration not stated),-4,-10,-3,-5.5,0,3,4318
COCCCNC(=O)CCn1c(=O)c2ccccc2n(CC(=O)NCCc2ccc(OC)c(OC)c2)c1=O,-4,-5,-22,3.4,-8,-2,3832
C=C1c2cc(C)ccc2NC(=O)N1c1ccc(C)cc1,8,12,6,5.8,/,/,3556
O=C(Nc1ccc(Cl)cc1)c1ccc(-n2cccn2)c([N+](=O)[O-])c1,-11,-5,3,0.8,-6,-5,15492
COc1cccc(C=NN2CCN(C3c4ccccc4-c4ccccc43)CC2)c1O,/,-2,/,-2.6,-5,-4,/
O=C(/C=C/c1ccccc1)Nc1ccc(CN2CCOCC2)cc1,-52,0,-9,-2.1,-1,-5,2534
O=C(CN1CCCCC1)N/N=C/c1ccc(Cl)cc1Cl,-18,/,2,/,/,/,3971
O=C(NCc1ccc2c(c1)OCO2)C1CCCN1C(=O)Nc1ccc(F)cc1 (configuration not stated),-1,-1,4,-0.4,-7,0,9786
Cc1nnsc1C(=O)NN=Cc1c(F)cccc1Cl,/,9,/,1.7,12,5,/
Cc1ccc(/C=N/N2CCN(Cc3ccccc3)CC2)o1,-39,/,8,/,/,/,7107

Entries from the list above with a cyano group (two):
mol,PrP 5UTR inh,Sa ugtP lethal,BJeLR viability,Sa RN4220 lethal,Mtb hypoxia inh,Mtb hypoxia inh growth,Autofluor counter
N#Cc1nc(Nc2cccc(Cl)c2)c2ncn(C3CCCC3)c2n1,0,-13,/,-1.0,-2,2,3679
COC(=O)C(C#N)c1nc2ccccc2nc1N1CCN(Cc2ccc3c(c2)OCO3)CC1 (configuration not stated),/,4,9,3.0,/,/,/

Next section:
mol,PrP 5UTR inh,Sa ugtP lethal,BJeLR viability,Sa RN4220 lethal,Mtb hypoxia inh,Mtb hypoxia inh growth,Autofluor counter
CC(=O)c1ccc(N2CCN(C(=O)CCN3C(=S)NC(C)(C)CC3C)CC2)cc1 (configuration not stated),-26,-1,-6,2.3,3,1,3629
Cc1ccc(C)n1-c1nnc(N2CCC(C(=O)NCCCN3CCN(C)CC3)CC2)s1,0,3,1,1.7,/,/,4514
O=C(CCNC(=O)c1ccc(Br)cc1)NCc1cccnc1,-22,-2,3,-3.2,0,-4,?
Cc1c(C(=O)C(=O)NCc2cccs2)c2ccccc2n1C,-18,12,38,-3.5,5,-4,4234
COc1cccc(/C=C2\SC(=S)N(N3C(=O)CCCC3=O)C2=O)c1,-7,7,2,0.5,12,6,4124
Cn1c(N)c(C(=O)CSc2nnc(N)s2)c(=O)n(C)c1=O,-4,-1,/,0.1,3,2,2994
O=S1(=O)C2CC3C=C[C@@]2(CN1Cc1ccc(F)cc1)O3 (some centres not stated),/,3,/,3.7,6,8,/
Cc1cc(C)c(S(=O)(=O)NCC2CCC(C(=O)NCc3ccc4c(c3)OCO4)CC2)c(C)c1 (configuration not stated),-15,-6,0,-6.0,11,3,8394
COC(=O)c1c(NC(=O)c2ccoc2C)sc2c1CCC2,1,6,-3,4.3,9,7,4198
CC(C)NC(=S)NNc1ncnc2sc3c(c12)CC(C)(C)OC3,/,0,12,2.3,2,-3,/
CC(=N/N=C1/NC(=O)C(CC(=O)Nc2ccc(Cl)cc2)S1)c1ccco1 (configuration not stated),/,6,/,8.9,13,5,/
N#CCC(=O)Nc1ncc(Cc2ccccc2Cl)s1,-24,/,6,/,/,/,3608
O=C(NN=Cc1cc2c(c([N+](=O)[O-])c1)OCO2)c1ccncc1,/,6,/,0.8,6,8,/
CCS(=O)(=O)Nc1cc(-c2nc3cccnc3s2)ccc1C,-39,-6,-6,-5.9,7,8,5899
C=CCn1c(SCC(=O)NC(=O)c2cccn2C)nc2ccccc2c1=O,-10,1,-4,3.9,-5,2,3700
O=C(NCc1ccncc1)C1=NN(c2ccccc2)C(=O)CC1,-1,19,3,2.1,5,2,3268
O=C(NCCNC(=O)c1ccccc1[N+](=O)[O-])c1ccccc1[N+](=O)[O-],0,2,-3,-0.4,-12,-5,3463
CCOC(=O)CSc1nc2sccc2c(=O)[nH]1,-17,11,3,1.7,/,/,4153
COc1ccc(CC(=O)NCc2nn(-c3ccccc3)nc2C)cc1OC,-4,-5,-16,-2.1,-6,8,5815
CCOC(=O)C1(Cc2cccc(OC)c2)CCCN(S(=O)(=O)CC)C1 (configuration not stated),-8,-1,2,5.2,13,6,4219
CC(C)CN(C(=O)CSc1ncnc2sccc12)C1CCS(=O)(=O)C1 (configuration not stated),-4,-2,/,2.9,2,4,3058
N/C(=N\OC(=O)c1ccc2c(c1)OCO2)c1ccncc1,-45,6,-1,3.4,5,-2,4738
COc1ccc(NC(=O)c2ccc(-c3ccc(C(C)=O)cc3)o2)cn1,-17,12,/,5.1,1,-4,4053
CC(C)Cn1c(=O)c(CCC(=O)Nc2ccc(N3CCOCC3)cc2)nc2cc(Cl)ccc21,5,3,10,-0.2,-13,-3,4355
COc1ccc(-c2n[nH]c(=S)n2C2CCCCC2)cc1,-12,0,-5,12,-6,15,2494
CCN(C(=O)CSc1nnc(C)n1-c1ccccc1)C1CCS(=O)(=O)C1 (configuration not stated),-19,17,-3,4.9,-3,2,3319
CCc1noc(C)c1C(=O)OCC(=O)c1ccccc1OC,-6,8,2,1.4,7,2,6210
COc1ccc(-c2nnc3ccc(SC)nn23)cc1,-11,1,-4,4.7,25,21,17068*
COc1ccc(CC(=O)Oc2ccccc2C)cc1S(=O)(=O)N1CCOCC1,-25,15,-11,5.1,7,7,5941
CC1(C)Cc2c(sc3c2c(=O)n(-c2cccc(Cl)c2)c(=O)n3CC(N)=O)CO1,-14,4,0,0.7,-4,-7,3668
COc1cccc(-c2nn(C)c3sc(C(=O)NCc4ccc(C)cc4)cc23)c1,-19,-11,-19,-0.7,4,14,3781
NC1=NC2(CCCCC2)N(c2cccc(Cl)c2)C(N)=N1,-14,0,-5,0.2,6,0,16971*
COC(=O)N/N=C(\C)c1ccc2ccccc2c1OC(F)F,-33,/,-1,/,/,/,2501
CCC(C)[C@@H](C(=O)Nc1ccc(OC)c(OC)c1)N1Cc2ccccc2C1=O (some centres not stated),-21,7,2,0.3,/,/,5662
COc1cccc(/C=N/NC(=O)c2nnn(-c3nonc3N)c2C(C)C)c1,-8,/,-2,/,/,/,4821

Grouped by structure: the compounds so far with an NH in an aromatic ring (2)
mol,PrP 5UTR inh,Sa ugtP lethal,BJeLR viability,Sa RN4220 lethal,Mtb hypoxia inh,Mtb hypoxia inh growth,Autofluor counter
CCOC(=O)CSc1nc2sccc2c(=O)[nH]1,-17,11,3,1.7,/,/,4153
COc1ccc(-c2n[nH]c(=S)n2C2CCCCC2)cc1,-12,0,-5,12,-6,15,2494
